# KCNQ2 pot: potentiators of rat KCNQ2 potassium channel; O88943; actives 0.54% (n = 310,000); B-score at 10 µM; CHO-K1 KCNQ2, FluxOR thallium flux fluorescence; stronger effect = higher value; AID 2239;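 active = fluorescence ratio B-score at least 3 SD of library B-scores, with initial fluorescence B-score within 3 SD, cut at about 5.3 in these data; same plate scores as AID 2156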;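 also: B-score of peak minus minimum over baseline fluorescence ratio after K+ and Tl+ stimulus; positive B-score means potentiation of KCNQ2 with more thallium influx and brighter signal; only the inactives scoring about 0 or higher are listed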
# Target sequence (O88943 whole entry, looked up): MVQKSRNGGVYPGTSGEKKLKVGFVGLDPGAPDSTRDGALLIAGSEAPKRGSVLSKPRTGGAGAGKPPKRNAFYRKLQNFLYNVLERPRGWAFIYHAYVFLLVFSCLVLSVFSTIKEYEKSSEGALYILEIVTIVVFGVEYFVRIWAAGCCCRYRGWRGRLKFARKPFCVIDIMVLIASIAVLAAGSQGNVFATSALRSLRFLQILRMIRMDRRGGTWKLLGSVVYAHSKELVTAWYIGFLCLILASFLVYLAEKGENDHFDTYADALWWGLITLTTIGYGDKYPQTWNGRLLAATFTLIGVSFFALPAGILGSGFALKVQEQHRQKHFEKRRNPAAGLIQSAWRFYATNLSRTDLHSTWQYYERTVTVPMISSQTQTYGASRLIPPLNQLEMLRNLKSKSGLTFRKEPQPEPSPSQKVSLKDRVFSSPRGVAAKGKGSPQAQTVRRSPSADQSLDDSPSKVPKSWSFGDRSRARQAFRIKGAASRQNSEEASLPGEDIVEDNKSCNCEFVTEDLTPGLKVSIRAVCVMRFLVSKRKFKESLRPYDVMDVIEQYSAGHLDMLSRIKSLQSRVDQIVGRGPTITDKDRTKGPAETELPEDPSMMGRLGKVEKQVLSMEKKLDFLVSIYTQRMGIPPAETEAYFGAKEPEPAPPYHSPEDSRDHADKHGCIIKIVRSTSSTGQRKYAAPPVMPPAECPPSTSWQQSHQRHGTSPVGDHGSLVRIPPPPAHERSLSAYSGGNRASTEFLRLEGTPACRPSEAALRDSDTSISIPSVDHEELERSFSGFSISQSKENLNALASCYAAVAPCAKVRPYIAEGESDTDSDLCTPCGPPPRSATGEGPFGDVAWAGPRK
# KCNQ2 pot baseline: recorded beside KCNQ2 pot, whose call it bears; B-score; compound at 10 µM; measured here: initial fluorescence intensity artifact check;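 brightness before thallium and not channel activity; 0 = typical well and far values either way flag optical interference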
# * hit, by the source's call. Not all compounds are listed. The share of hits here may be higher or lower than overall.
Molecule	KCNQ2 pot	KCNQ2 pot baseline
CC1CN(C(=O)Nc2ccc3c(c2)OCO3)CC(C)O1 (stereo not drawn)	1.1	2.7
CCC(Oc1ccccc1)C(=O)Nc1ccc(S(=O)(=O)N2CCOCC2)cc1 (stereo not drawn)	0.03	-0.84
CC(C)Cc1nnc(NC(=O)CCC(=O)N2CCN(Cc3ccc(F)cc3)CC2)s1	0.25	1.4
O=C(CNCc1ccccn1)Nc1cc(S(=O)(=O)N2CCCCC2)ccc1Cl	0.04	0.21
Cc1csc(NC(=O)CS(=O)(=O)c2ccccc2)n1	0.43	-0.51
O=C(NCc1cccnc1)c1ccccc1CCc1ccccc1	1	0
C/C(=N\Nc1nccnc1Cl)c1ccc(O)cc1	1.7	-0.01
O=C(CSc1nc2ccccc2[nH]1)Nc1cccc(S(=O)(=O)N2CCOCC2)c1	0.34	-0.07
N=c1c(C(=O)NCC2CCCO2)cc2c(=O)n3ccccc3nc2n1Cc1ccco1 (stereo not drawn)	0.88	0.31
CCC(=O)c1ccc(NC(C)=O)cc1O	0.48	1.3
O=C(NCc1ccncc1)C1CCCN1S(=O)(=O)c1ccc(Cl)cc1 (stereo not drawn)	2.3	0.53
C#CCSc1nnnn1-c1ccc(OCC)cc1	0.55	-0.8
O=C(Cn1nc(C(F)F)cc1C(F)F)NNC(=S)Nc1ccc([N+](=O)[O-])cc1	1.8	1.3
COc1cc(NC(=S)N2CCN(C(=O)C3CCCO3)CC2)c(OC)cc1Cl (stereo not drawn)	0.11	0.1
CCOCCCNC(=O)C(c1ccc(Cl)cc1)N1CCN(c2ccccc2)CC1 (stereo not drawn)	1.2	0.13
CCOC(=O)c1cnc(SCCc2ccccc2)nc1N	0.22	-0.48
Cn1c(=O)c2c(ncn2CC(=O)Nc2nccs2)n(C)c1=O	0.69	1.1
C[N+](C)(C)CC(=O)N/N=C/c1c2ccccc2cc2ccccc12	0.25	-0.11
CC12c3ccccc3C(c3ccccc31)C1C(=O)N(Cc3cccnc3)C(=O)C12 (stereo not drawn)	0.26	-0.1
S=c1[nH]nc(COc2ccccc2)n1/N=C/c1ccco1	0.5	-0.03

# (list continues)
Molecule	KCNQ2 pot	KCNQ2 pot baseline
CC(c1nccs1)N(C)C(=O)CCc1nnc(-c2ccc(-c3ccccc3)cc2)o1 (stereo not drawn)	2	-0.56
CCCCC(=O)Nc1ccc(C(=O)NNC(=O)c2ccccc2Br)cc1	0.36	-1.4
COc1ccc(OC)c(NC(=O)c2ccc3c(=O)n(CCc4ccccc4)c(=S)[nH]c3c2)c1	1.7	-0.94
COc1ccc(/C=C/C(=O)Nc2c(C)nn(C)c2C)cc1COc1ccc(Cl)cc1Br	0.76	-0.01
COc1ccc(N2C(=O)c3cccc4cccc(c34)C2=O)cc1	0.77	-1.2
CC1=C(C(=O)Nc2ccccc2C(=O)NCc2ccccc2)SCCO1	0.07	-1.5
Cc1ccc2nc(-c3cccc(Br)c3)cc(C(=O)Nn3cnnc3)c2c1	0.69	0.65
COc1cc(CN2CCC(C(=O)N3CCN(c4ccccc4F)CC3)CC2)ccc1O	0.66	-0.89
Cc1cccc(N(Cc2ccccc2F)S(C)(=O)=O)c1	2.9	0.01
COC(=O)/C(=C/c1ccccc1)NC(=O)c1ccco1	0.36	-0.68
CC(C)CCNC(=O)NC(=O)COc1ncnc2sccc12	0.87	1.5
O=C(NCCOc1ccccc1Cl)C(=O)c1c[nH]c2ccccc12	0.37	-1.6
COc1ccc(CNC(=S)Nc2ccc(OC)cc2)cc1	0.56	-1.1
COc1cc(CNCCN(C)C)c(Br)cc1OCC(=O)NCc1ccccc1	0.11	-0.68
CCC(=O)NCCc1nc2cc(NC(=O)c3ccccc3OC)ccc2n1C	0.02	0.81
CCO[C@@H]1OC(C(=O)N2CCOCC2)=C[C@H](c2ccccc2)[C@H]1CCCO	0.29	0.22
CC(OC(=O)CCCNC(=O)c1ccc(Cl)cc1)C(=O)N(C)Cc1ccccc1 (stereo not drawn)	0.68	0.01
CC1CCCCC1NC(=O)c1ccc(S(=O)(=O)N2CCCC2)cc1 (stereo not drawn)	0.49	-0.02
O=C(NC1(C(F)(F)F)NC(=O)N(c2ccccc2)C1=O)c1cccs1 (stereo not drawn)	1.3	-0.31
Cc1ccc(Nc2c([N+](=O)[O-])cc(C(=O)N3CC(=O)Nc4ccccc43)cc2[N+](=O)[O-])c(C)c1	0.18	1.1

# New compounds follow.
Molecule	KCNQ2 pot	KCNQ2 pot baseline
COc1ccc(Cl)cc1-c1n[nH]c(=S)n1C	1.1	0.44
COc1ccc(NC(=O)CSc2nnnn2-c2ccc(F)cc2)cc1	0.92	-0.05
Cn1c(=O)c2c(n(Cc3ccccc3)c1=O)NC(=O)C2CC(=O)O (stereo not drawn)	0.73	1.2
CCCCNC(=O)NS(=O)(=O)c1ccc(C(=O)OC)o1	0.06	0.03
Cc1ccc(N(C)S(=O)(=O)c2c(C)noc2/C=C/N(C)C)cc1	0.38	1.1
CCOc1ccc(N(C(=O)c2cc3ccccc3oc2=O)C2C=CS(=O)(=O)C2)cc1 (stereo not drawn)	0.43	-1.6
Cc1cc(SCC(=O)OCC(=O)N(C)C2CCS(=O)(=O)C2)c(C)cc1Br (stereo not drawn)	1.5	0.04
C=CCc1ccccc1OCCCCN1CCCC1	1.6	-0.74
COc1ccccc1C(=O)/C=C/c1ccc(N2CCCCC2)c([N+](=O)[O-])c1	0.03	-0.86
O=C(NCCc1ccccc1)c1cnn2c(C(F)F)cc(C3CC3)nc12	0.77	-0.03
CC(Oc1ccc2ccccc2c1)C(=O)NNC(=O)Nc1ccccc1 (stereo not drawn)	4.8	-0.76
COc1ccccc1NC(=S)N1CC(C)OC(C)C1 (stereo not drawn)	0.58	0.72
Cc1ccccc1C(=O)N1CCCC(N2CCN(Cc3ccc4c(c3)OCO4)CC2)C1 (stereo not drawn)	0.54	-0.01
CCN1CCN(C(CNS(=O)(=O)c2ccc(C)cc2)c2cccnc2)CC1 (stereo not drawn)	0.04	0.39
O=C(O)c1cc(-c2ccc(/C=C3\NC(=O)N(c4ccccc4)C3=O)o2)ccc1Cl	0.33	-0.51
CCOC(=O)C(C)CC(C)C(=O)N1CCOCCN(C(=O)C(C)CC(C)C(=O)OCC)CCOCC1 (stereo not drawn)	0.82	0.34
COc1cccc(NC(C)(C)c2nnnn2-c2c(C)cccc2C)c1	0.5	0.24
CC(C)(C)C(=O)Nc1nc2ccc(S(C)(=O)=O)cc2s1	0.97	-1.1
O=C(CNC(=O)Cc1ccccc1)NCC(=O)OCC(=O)c1ccccc1Cl	0.89	-1.4
COc1ccc(CNC(=O)C2CCN(c3nc(OC)nc(OC)n3)CC2)cc1	0.67	-0.67

# Random excerpt: 2 records from the list, in no set order.
Molecule	KCNQ2 pot	KCNQ2 pot baseline
C[N+](C)(C)CC(=O)N/N=C/c1c2ccccc2cc2ccccc12	0.25	-0.11
Cc1cccc(N(Cc2ccccc2F)S(C)(=O)=O)c1	2.9	0.01

# Following part
Molecule	KCNQ2 pot	KCNQ2 pot baseline
O=C(Cn1cnc2c(nnn2-c2ccc(F)cc2)c1=O)NCc1ccco1	0.06	-1.2
CC(C)c1nnc(NC(=O)CCC(=O)N2CCC(Cc3ccccc3)CC2)s1	3.5	-0.28
CCCCN1CCNC[C@H]1Cc1ccc(O)cc1	0.3	1.4
O=C(c1cccnc1)N1CCN(Cc2ccccc2Br)CC1	2.5	0.99
Cc1cccn2c(CN(C)CC3Cc4ccccc4O3)c(C(=O)N3CCCCC3)nc12 (stereo not drawn)	0.25	-0.02
CC(C)(C)c1ccc(C(=O)NCC(=O)OCc2ccc([N+](=O)[O-])cc2)cc1	1.1	0.96
Cc1cccn2c(=O)c3cc(C#N)c(=N)n(CCCN4CCOCC4)c3nc12	0.14	0.67
Cc1ccc(S(=O)(=O)[N-]c2nc3ccccc3nc2-n2cc[n+](CCC(C)C)c2)cc1	0.02	-0.01
Cc1nnsc1SCCNC(=O)c1ccc(F)cc1	2.7	1.1
O=S(=O)(Nc1nc2ccccc2nc1Cl)c1cccc(C(F)(F)F)c1	0.04	-2.6
Cc1nc(SCC(=O)NC2CC2)c2c(C)c(C)sc2n1	0.96	2.3
CC(=O)Nc1ccc(N=Nc2ccc(O)cc2)cc1	0.61	-3.5
CN1/C(=C/C(=O)c2cccs2)Sc2ccccc21	0.2	-1.6
Cc1ccccc1-n1c([C@@H]2C[C@H]2c2ccccc2)n[nH]c1=S	0.01	0.16
Cc1ccc(Nc2nc(NCC3CCCO3)nc(N)c2[N+](=O)[O-])cc1 (stereo not drawn)	1.3	-1.6
Cc1cc2oc(C(=O)Nc3c(C)n(C)n(-c4ccccc4)c3=O)c(C)c2cc1Cl	2.2	-1.7
Cc1ccc(C(=O)O/N=C(\N)c2nonc2N)cc1	0.38	-0.39
N#Cc1ncc(Cl)c2ccccc12	1.8	-0.98
COc1c(Cl)ccc(Cl)c1C(=O)NC(=S)N1CCOCC1	0.21	0.51
CCN(CC)c1nc(Nc2ccc(Cl)cc2)nc(OCC#N)n1	0.8	0.39

# (list continues)
Molecule	KCNQ2 pot	KCNQ2 pot baseline
O=C(Nc1nc2c(F)c(F)c(F)cc2s1)c1ccco1	0.59	0.37
COc1ccc2[nH]c(=O)c(C(c3nnnn3C3CCCC3)N(C)C3CCCCC3)cc2c1 (stereo not drawn)	0.71	-0.37
CO/N=C/c1ccc(Oc2ccc([N+](=O)[O-])cc2[N+](=O)[O-])c(OC)c1	2.5	-0.91
COc1ccccc1OCC(=O)N1CCCC(Nc2cccc(F)c2)C1 (stereo not drawn)	1.3	-1.3
COc1cc(C(=O)Nc2cccc(C(C)=O)c2)cc(OC)c1OC	0.66	1.6
O=C(CSc1ccc(-c2ccccc2)nn1)NCc1ccco1	0.74	-1
COc1cccc(NC(=O)CSc2nnc(Cn3cnc([N+](=O)[O-])n3)n2C)c1	0.68	-0.47
CN(C)CCCN(C(=O)c1ccc(S(=O)(=O)N2CCCCCC2)cc1)c1nc2cc3c(cc2s1)OCCO3	1.2	0.88
CCCN(CC(=O)Nc1ccc(F)c(F)c1F)C(=O)C1=COCCO1	0.04	-0.02
COc1ccc(C2NC(=O)NC(C)=C2C(=O)OCc2ccccc2)cc1 (stereo not drawn)	0.57	-0.11
O=C(NCC1CCCO1)C1CC(=O)N(c2ccc(Cl)cc2)C1 (stereo not drawn)	1.3	-0.17
COc1ccc(-c2cccc(C(=O)N3CCOCC3)c2)cc1	1.2	0.21
O=C(Cc1c(C(=O)O)[nH]c2ccccc12)NCCN1CCN(c2ccccc2F)CC1	0.05	0.25
COc1ccc(C(=O)NC(=S)Nc2cccc3cc(O)ccc23)cc1OC	0.67	0.85
O=C(O)CSC(NC(=O)c1cccnc1)(C(F)(F)F)C(F)(F)F	0.03	0.04
Cc1ccc(CN(C)CCc2ccccn2)cc1	0.47	-0.6
C/C=C\C(=O)Nc1cccc(C2=NOC3(C2)C[C@@H](C(N)=O)N(C(=O)CCCCC)C3)c1 (stereo partly drawn)	0.01	-1.8
Cc1cccc(OCCCCCN2CCOCC2)c1C	1.8	-0.88
O=C(c1cccc(NS(=O)(=O)c2cccc(F)c2)c1)N1CCN(c2ccccc2)CC1	0.29	1.2
Cc1cc(NC(=O)CCN2CC(C)OC(C)C2)ccc1Br (stereo not drawn)	1.1	-0.33

# Next results
Molecule	KCNQ2 pot	KCNQ2 pot baseline
Cc1ccc(Nc2nc(N)nc(CN3CCN(Cc4ccc5c(c4)OCO5)CC3)n2)c(C)c1	1.6	1.4
Cc1ccc(Nc2ccc(S(=O)(=O)N3CCOCC3)cc2[N+](=O)[O-])cc1C	0.56	-0.74
O=C(COC(=O)CCC(=O)c1cccs1)NCc1ccccc1	0.2	-0.71
CS(=O)(=O)N1CCC(Oc2ccccc2C(=O)N2CCN(CC3CC3)CC2)CC1	0.94	-0.43
COc1ccc(C2C(C(=O)Nc3ccc(OC)c(OC)c3)c3ccccc3C(=O)N2C)cc1 (stereo not drawn)	0.31	0.44
CCC(O)(CC)C(=O)N(Nc1ccc(C)cc1)c1ccc(C)cc1	5.6*	0.06*
COc1ccc(Oc2ccc(C(F)(F)F)cc2NC(=O)CC(CC(=O)O)c2ccccc2)cc1 (stereo not drawn)	0.4	0.48
CCc1c(O)nc(SCC(=O)N(CC)CC)[nH]c1=O	1.6	-2.6
CCOc1ccc(NC(=O)CCSc2nc3c(c(CC)c2C#N)C(=O)CC(C)(C)C3)cc1	0.59	-1.5
O=C(Nc1ccc(F)cc1F)N1CCCCC1c1cccnc1 (stereo not drawn)	0.2	-0.18
Cc1cc(C)nc(NS(=O)(=O)c2ccc(NC(=S)NC(=O)c3ccco3)cc2)n1	2.7	-0.09
O=C(N/N=C/c1cccc([N+](=O)[O-])c1)c1cnccn1	0.04	-1.1
COc1ccc2c(c1)C(=NN)c1cc(OC)ccc1-2	0.02	-1.6
COc1ccc(C)cc1-n1c(SCC(=O)Nc2cccc(C(=O)O)c2)nc2ccccc2c1=O	0.42	-0.49

# Rewritten field by field: 4 of the compounds above.
COc1ccc(Oc2ccc(C(F)(F)F)cc2NC(=O)CC(CC(=O)O)c2ccccc2)cc1 (stereo not drawn)
- KCNQ2 pot: 0.4
- KCNQ2 pot baseline: 0.48
CCc1c(O)nc(SCC(=O)N(CC)CC)[nH]c1=O
- KCNQ2 pot: 1.6
- KCNQ2 pot baseline: -2.6
CCOc1ccc(NC(=O)CCSc2nc3c(c(CC)c2C#N)C(=O)CC(C)(C)C3)cc1
- KCNQ2 pot: 0.59
- KCNQ2 pot baseline: -1.5
O=C(Nc1ccc(F)cc1F)N1CCCCC1c1cccnc1 (stereo not drawn)
- KCNQ2 pot: 0.2
- KCNQ2 pot baseline: -0.18
